High-throughput results from PubChem.
AID923: qHTS Assay for Allosteric/Competitive Inhibitors of Caspase-1: Spectroscopic Profiling in AFC Spectral Region; compound fluorescence, AFC spectral region (405/520 nm); almost no hit is shown here; Potency, µM (series often up to 57.5 µM), inactives show top-dose fluorescence increase, hits mostly activators; 1.1% of 75,000 active; AID 923, 2007; active means well fitted activation curve with a large enough effect;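 further: 0% is about no effect; scaled to a free AFC standard on each plate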
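Titrations up to 57 uM read every 20 sec for 3 min (405/520 nm) with 50 nM caspase 1 and 5 uM Ac-WEHD-AFC, pH 7.5 HEPES buffer. Fluorescence-vs-time intercept gave baseline, scaled against on-plate AFC standard.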
The depositor's hits bear a star. Potency means the concentration at half of the fitted maximal effect. The list is partial, so the mix of outcomes need not match the whole.

`CCC1C(=O)OC[C@H]1Cc1cncn1C` (some centres not stated) gave AID923 -0.8%.
